# RE007 growth inh = less growth of the S. pombe RE007 Vpr strain | S. pombe RE007 Vpr strain, BacTiter-Glo ATP luminescence, 24 h; control for the full effect not named in the record | Potency, µM (series often up to 92.2 µM), without a hit: at the top dose activity change, negative = less growth | 360,000 compounds, 0.21% hits | AID 651644; active = well fitted falling curve with a large enough effect; inconclusive = small, poorly fitted or top-dose-only effect; inactive = no such curve, though single readings can be large or run the other way;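 note: % is set by controls: 0 for no effect and ±100 for the full control effect; nearly all actives have a fitted effect of over 50% in size; the assay follows cell death caused by Vpr and the record does not say whether a fall means rescue or toxicity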
#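 Fission yeast strain RE007, carrying one chromosomally integrated HIV-1 vpr copy, was seeded at OD 0.01 in PMG+AL medium with 23 nL pinned compound. After 24 h at 30 °C and 99% humidity, viability was read by BacTiter-Glo luminescence.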
# Cruzain Triton = cruzain (T. cruzi) inhibition with detergent; P25779; purified cruzain, Z-FR-AMC fluorescence, 0.01% Triton; Potency, µM, without a hit: max response, negative = inhibition, most hits filed as inhibitors; 200,000 compounds, 0.43% hits; AID 1478; active = well fitted curve in the direction sought with a large enough effect; inconclusive = small, poorly fitted or top-dose-only effect, or another doubt; inactive = no such curve, though single readings can be large; an effect the other way counts as inactive or inconclusive;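 note: plate controls were neutral wells for no effect and buffer without enzyme for full effect; nearly all actives have a fitted effect of over 40% in size; top concentration of the series not given in the record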
# Target sequence (P25779 123-467 limits assumed): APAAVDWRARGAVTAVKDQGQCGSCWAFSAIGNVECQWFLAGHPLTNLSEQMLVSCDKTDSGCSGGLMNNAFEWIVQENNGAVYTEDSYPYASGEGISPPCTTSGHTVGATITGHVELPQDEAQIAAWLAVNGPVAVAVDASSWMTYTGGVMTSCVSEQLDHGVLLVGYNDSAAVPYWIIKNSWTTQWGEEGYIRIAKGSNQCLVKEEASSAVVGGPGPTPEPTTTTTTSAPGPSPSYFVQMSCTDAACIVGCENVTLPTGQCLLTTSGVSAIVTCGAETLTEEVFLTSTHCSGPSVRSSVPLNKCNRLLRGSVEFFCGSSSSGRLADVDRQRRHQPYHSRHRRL
#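 In this qHTS format, compounds are incubated with 1.5 nM cruzain for 15 min at room temperature before 2 uM Z-FR-AMC is added. Release of AMC is followed at 360/450 nm, and progress is taken as the 60 s fluorescence difference.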
# SARS PLpro yeast = SARS-CoV PLP inhibition in yeast; S. cerevisiae expressing SARS-CoV PLpro, growth rescue; control for the full effect not named in the record; Potency, µM (highest dose often 32.9 µM), without a hit: top-dose activity, positive = growth rescue; 330,000 compounds, 0.19% hits; note: 0% is about no effect; nearly all actives have a fitted effect of over 55% in size; growth read by luminescence after 48 h
# MARV entry inh = blocks Marburg virus binding to or entry into cells. Marburg virus pseudotyped entry inhibition, cell reporter; control for the full effect not named in the record; about a third of the inactives were read at about 46 µM. Potency, µM (series often up to 37.8 µM), for the others: at the top dose activity change, negative = inhibition, actives largely listed as inhibitors. 300,000 compounds, 1.8% hits. AID 540276; active = well fitted inhibition curve with a large enough effect; inconclusive = small, poorly fitted or top-dose-only effect, or effect the other way; inactive = flat fitted curve, though single readings scatter; tested in HEK293 cells; about a fifth of its hits are not listed in these tables; note: % is set by controls: 0 for no effect and ±100 for the full control effect; luciferase read-out
# Cruzain inh noDet = blocks cruzain activity in detergent-free assay. P25779. purified cruzain, Z-FR-AMC fluorescence, no detergent. Potency, µM, inactives show max response, negative = inhibition, usual class: inhibitors. 200,000 compounds, 2.3% hits. AID 1476; active = well fitted curve in the direction sought with a large enough effect; inconclusive = small, poorly fitted or top-dose-only effect, or another doubt; inactive = no such curve, though single readings can be large; an effect the other way counts as inactive or inconclusive;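 note: plate controls were enzyme without inhibitor for no effect and buffer without enzyme for full effect; nearly all actives have a fitted effect of over 40% in size; top concentration of the series not given in the record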
#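 Detergent-free condition (0.00005% Triton X-100) in acetate buffer pH 5.5 with DTT. 1.5 nM enzyme and compound were pre-mixed 15 min, then 2 uM Z-FR-AMC substrate added; reaction progress from fluorescence change between first and third reads (60 s).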
# NS1 function inh = influenza NS1 inhibition. S. cerevisiae slowed by influenza A NS1, growth recovery by OD600. AID 2326. 270,000 compounds, 0.4% hits. Potency, µM (highest dose often 46.1 µM), for the others: at the top dose activity, positive = more growth; note: actives are rising curves; nearly all actives have a fitted effect of over 50% in size
#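 In this qHTS, NS1 from influenza A is expressed in budding yeast, where it slows growth. Cells are switched from glucose to 2% galactose medium (pH 6.0, -URA), treated with compound, and growth recovery is read at OD600.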
# Lassa entry inh = Lassa virus entry inhibition; Lassa virus pseudotype entry inhibition, cell reporter; control for the full effect not named in the record; Potency, µM (doses to about 37.9 µM), without a hit: top-dose activity change, negative = inhibition, usual class: inhibitors; 300,000 compounds, 1.2% hits; AID 540256; active means well fitted inhibition curve with a large enough effect; inconclusive means small, poorly fitted or top-dose-only effect, or effect the other way; inactive means flat fitted curve, though single readings scatter; tested in HEK293 cells; note: % is set by controls: 0 for no effect and ±100 for the full control effect; nearly all actives have a fitted effect of over 50% in size; luciferase read-out
# 2A StopGo = lowers the luciferase signal of an FMDV 2A StopGo reporter. human cells with a luciferase reporter of 2A StopGo recoding; control for the full effect not named in the record. Potency, µM (top dose mostly 57.9 µM), for the others: at the top dose signal change, negative = less light. 410,000 compounds, 1.2% hits. AID 1159524; active = well fitted falling curve with a large enough effect; inconclusive = small, poorly fitted or top-dose-only effect; inactive = no such curve, though single readings can be large or run the other way; tested in HEK293T cells; note: % is set by controls: 0 for no effect and ±100 for the full control effect; nearly all actives have a fitted effect of over 45% in size; luciferase light after 4 h
# The depositor's hits bear a star; ? = inconclusive; . = not tested or not shown; & = joins results of further samples; [ ] = remark or other dose. Unless noted, calls come from the whole dose curve; as a rule, active means well fitted rising curve with a large enough effect; inconclusive means small, poorly fitted or top-dose-only effect; inactive means no such curve, though single readings can be large or run the other way. Potency is the fitted concentration of half-maximal effect.
# Below each SMILES – RE007 growth inh | Cruzain Triton | SARS PLpro yeast | MARV entry inh | Cruzain inh noDet | NS1 function inh | Lassa entry inh | 2A StopGo
> CCOC(=O)c1c[nH]c(=S)n1C
 : 8% | . | 0% | . | . | 5% | . | 15%
> Cc1c(/C=C(\C#N)c2nn(-c3ccccc3)c(N)c2C#N)c2ccccc2n1Cc1ccc(F)cc1
 : -19% | -1.2% | 2% | 6% | 4µM* | -1% | 19% | -23%
> COC(=O)c1ccc(NC(=O)N2CCOCC2)cc1
 : 11% | 3.9% | 17% | 25%[46.1 µM] | -11% | 3% | -6% | 5%
> CCN(CC)P(=O)(c1n(CC)cc[n+]1CC)N(CC)CC
 : -6% | . | -8% | 7%[46.1 µM] | . | . | -8% | -15%
> Cn1c(=O)c2c(nc(CN3CCC(C(N)=O)CC3)n2Cc2ccccc2F)n(C)c1=O
 : 5% | 3.9% | 0% | -14% | -7% | -2% | -3% | -20%
> CN(CC1CCCO1)S(=O)(=O)c1ccc(C(=O)Nc2ccccc2F)cc1 (stereo unspecified)
 : -5% | . | . | 0% | . | . | -22% | 12%
> CCOC(=O)C1=C(C)NC(C)=C(C(=O)OCC)C1C(=O)OC1CCOC1=O (stereo unspecified)
 : 1%&23% | -4.2% | 0% | -5%[46.1 µM] | 5% | -3% | -5%[46.1 µM] | 25%&1%
> O=S(=O)(Cc1ccccc1)Nc1cccc(F)c1
 : 19% | . | -3% | 18%[46.1 µM] | . | -10% | ? | 6%
> CC1CCCN(C/C(O)=C(\C#N)c2nc3ccccc3[nH]2)C1 (stereo unspecified)
 : -4% | -4.4% | 0% | ? | -16% | -9% | 13% | -19%
> Cc1nn(Cc2ccccc2Cl)c(C)c1NC(=O)c1cc(-c2ccc(F)cc2)on1
 : 5% | 3.4% | -3% | ? | -18% | -7% | -9% | -14%
> Cc1ccc(N(CC(=O)NC2CCCCC2C)S(=O)(=O)c2c(C)noc2C)cc1 (stereo unspecified)
 : 2% | . | 3% | . | . | 16% | . | -16%
> CCOC(=O)C(C)(C)Sc1nc2c(cnn2-c2ccc(Cl)cc2)c(=O)[nH]1
 : -22% | 3.4% | -4% | . | -20% | 9% | . | ?
> CC(=O)COc1coc(CN2CCN(c3ccc(F)cc3)CC2)cc1=O
 : 10% | . | 1% | . | . | 13% | . | -3%
> NC(=O)N/N=C/c1c(F)c(F)c(F)c(F)c1F
 : -1% | . | 0% | 8%[14.2 µM] | . | 4% | 5% | -8%
> COC(=O)CC1C(=O)NCCN1C(=O)Nc1ccccc1 (stereo unspecified)
 : 9% | 5.0% | -4% | 5% | 6% | -7% | 7% | 2%
> COc1ccc(/C=N/NC(=O)c2cc(C3CC3)[nH]n2)cc1OC
 : -1% | . | 0% | -1%[46.1 µM] | . | 6% | 1% | -11%
> Clc1cccc(CN2CCN(Cc3ccco3)CC2)c1
 : 3% | . | 0% | -3% | . | 1% | ? | 6%
> Cc1ccc(-n2ncc3c2CC(C)(C)CC3NC(=O)c2ccncc2)cc1 (stereo unspecified)
 : 3% | . | -2% | -1% | . | -38% | -19% | ?
> Cc1ccc(C(=O)CSc2ccccc2C(=O)O)cc1
 : -4% | . | 4% | . | . | -8% | . | 0%
> Fc1ccc(-c2noc3ncnc(NCc4ccc(Cl)cc4)c23)cc1
 : . | -2.7% | . | . | 6% | . | -1%[46.1 µM] | -27%
> CCOC(=O)C(CC)Sc1nc2c(cnn2-c2ccc(F)cc2)c(=O)[nH]1 (stereo unspecified)
 : 7% | . | 0% | ? | . | 8% | 16%[46.1 µM] | -13%
> Cc1nn(C)c(C)c1NC(=O)Nc1ccc(Cl)c(Cl)c1
 : -10% | . | -15% | -1% | . | -9% | -3% | -13%
> COC(=O)c1c(NC(C)=O)sc(C)c1C
 : 1% | . | 0% | -9%[46.1 µM] | . | . | -1%[46.1 µM] | -8%
> COc1ccc(NC(=O)c2cccc(NC3=NC4CS(=O)(=O)CC4S3)c2)cc1Cl (stereo unspecified)
 : 1% | . | 1% | . | . | -6% | . | ?
> COc1ccc2[nH]cc(C(=O)CN3CCC(C)CC3)c2c1
 : 19% | -0.9% | 1% | ? | -6% | -6% | -11% | 62%[activator]
> CCOc1cc(N2CCOCC2)c(OCC)cc1NC(=O)CN1C(=O)C2CC=CCC2C1=O (stereo unspecified)
 : 9% | . | 0% | 8%[46.1 µM] | . | . | . | -16%
> Cc1cccc(NC(=S)NNC(=O)CCn2cc(C)cn2)c1
 : -1% | 3.1% | 4% | 16% | 2% | 4% | -23%[14.3 µM] | 3%
> CC(C)OC(=O)c1ccc(N)cc1
 : 5% | . | 0% | 12%[14.2 µM] | . | 1% | -3% | 0%
> Cn1c(=O)n(C)c2cc([N+](=O)[O-])c(N3CCNCC3)cc21
 : 2% | . | -4% | 21% | . | . | 1% | -4%
> CCOC(=O)c1c(C)oc2cc(Br)c(O)c(Br)c12
 : -14% | -11% | -24% | . | -3% | -163% | . | 39%[activator]
> C/C(CC(=O)Nc1ccccn1)=N\NC(=O)c1ccc(C)cc1
 : -16% | 0.8% | 2% | ? | -6% | 0% | 21% | -13%
> Cc1n[nH]c(C)c1CCC(=O)N/N=C/c1cccs1
 : 1% | . | 1% | 14%[46.1 µM] | . | 1% | -1%[46.1 µM] | 9%
> Cc1ccccc1NC(=O)CSc1nc(-c2ccco2)nc2cc(=O)[nH]n12
 : . | -5.0% | . | . | 15% | . | 2%[46.1 µM] | -10%
> CCC(=O)NC(=S)N1CCN(c2ccc([N+](=O)[O-])cc2Cl)CC1
 : -1% | -5.1% | -2% | -18% | 0% | 1% | -9% | -11%
> Cc1cc(C#N)c2ccccc2n1
 : 14% | 4.5% | 2% | -10% | -1% | -1% | 8% | -14%
> COc1ccccc1CN1CC(C(=O)NCc2cc(F)cc(C(F)(F)F)c2)CCC1=O (stereo unspecified)
 : -6% | . | -4% | . | . | -1% | . | -6%
> Fc1ccccc1N1CCN(Cc2ccc3c(c2)OCO3)CC1
 : -3% | -0.6% | 23% | -7% | 8% | -13% | 1% | 17%
> Cc1oc(-c2cccc(Cl)c2)[n+]([O-])c1C
 : -12% | 4.2% | -5% | -1%[46.1 µM] | 3% | -23% | 3% | 5%
> CN1CCC(OC(=O)c2cccc(Cl)c2)CC1
 : -4% | . | 2% | ? | . | . | -6% | -3%
> Cc1ccc(C)c(OCc2cc(C(=O)N3CC[C@H](O)C3)no2)c1
 : 0% | . | 10% | . | . | -4% | . | 32%[activator]
> Cc1ccc(CCNC(=O)C2CCC(=O)N2C(C)C)cc1 (stereo unspecified)
 : -7% | 3.5% | 6% | 7% | 0% | 5% | -1% | 11%
> COc1ccc(S(=O)(=O)N2CCOC2CNC(=O)C(=O)NCCN2CCOCC2)cc1 (stereo unspecified)
 : -4% | . | 2% | 12% | . | 11% | -6% | -8%
> Cc1cccn2c(CNC3CCCc4ccccc43)c(C(=O)N3CCOCC3)nc12 (stereo unspecified)
 : -3% | . | 0% | . | . | 0% | . | -4%
> COc1ccc(NC(=O)c2cc3n(n2)C(C(F)(F)F)CC(c2ccc(OC)cc2)N3)cc1 (stereo unspecified)
 : 6% | 0.9% | 0% | -13% | 10% | 7% | -16% | -8%
> COc1cc(CCC(=O)OCC(=O)NCC2CCCCC2)cc(OC)c1OC
 : 16% | . | -1% | 14%[46.1 µM] | . | . | -8% | -9%
> O=C(CN1C(=O)c2ccccc2C1=O)Nc1cccnc1
 : 2% | 0.5% | 3% | 19% | 1% | -2% | 2% | -15%
> Cc1onc(-c2ccccc2Cl)c1C(=O)N1CC(C)CC(C)C1 (stereo unspecified)
 : -14% | . | 2% | ? | . | -4% | 4%[46.1 µM] | -10%
> Cc1nn(C(=O)c2cccc([N+](=O)[O-])c2)c(C)c1Br
 : 2% | . | 0% | -18%[46.1 µM] | . | -3% | 16%[46.1 µM] | -15%
> COc1ccc(C(=O)COC(=O)CCC(=O)Nc2ccc(C(C)=O)cc2)cc1
 : 35% | . | -3% | -1% | . | -4% | -3% | 40%[activator]
> CC(C)c1ccc(S(=O)(=O)N2CCC(C(=O)N3CCC3)CC2)cc1
 : 4% | . | -9% | -12% | . | . | -30% | -20%
> CCOC(=O)c1[nH]c(C)c(/C(C)=N\O)c1C
 : 16% | . | . | 14%[46.1 µM] | . | 4% | ? | -14%
> NC(=O)CSc1nnc(NC(=O)c2ccc(S(=O)(=O)N3CCOCC3)cc2)s1
 : 1% | . | -5% | . | . | 10% | . | -22%
> CCn1c(C(C)NC(=O)c2ccc(OC)c(OC)c2)nc2ccccc21 (stereo unspecified)
 : -1% | 2.9% | -3% | -13% | 0% | -9% | -17% | -26%
> Cc1cccc(C)c1Nc1c(-c2ccc(N3CCOCC3)cc2)nc2ncccn12
 : -10% | -0.9%&-12% | -3% | -6%[46.1 µM] | -5%&10% | -12% | -20%[46.1 µM] | -26%&0%
> Cc1cc2cc(CCNC(=O)CC(C)C)c(=O)[nH]c2cc1C
 : . | -4.2% | 0% | . | -8% | 4% | . | .
> CN(CCc1cnn(C)c1)Cc1cn[nH]c1-c1ccc(-c2ccccc2)cc1
 : -18% | . | -2% | ? | . | -3% | 10% | 29%
> Cc1ccc(OCCCC(=O)Nc2ccc(N3CCOCC3)cc2)c(C)c1
 : 7% | 2.4% | 1% | ? | -1% | -6% | -2% | -16%

# In the list so far, 2 contain bromine.
# Below each SMILES – RE007 growth inh | Cruzain Triton | SARS PLpro yeast | MARV entry inh | Cruzain inh noDet | NS1 function inh | Lassa entry inh | 2A StopGo
> CCOC(=O)c1c(C)oc2cc(Br)c(O)c(Br)c12
 : -14% | -11% | -24% | . | -3% | -163% | . | 39%[activator]
> Cc1nn(C(=O)c2cccc([N+](=O)[O-])c2)c(C)c1Br
 : 2% | . | 0% | -18%[46.1 µM] | . | -3% | 16%[46.1 µM] | -15%

# Screens: PubChem BioAssay, National Center for Advancing Translational Sciences (NCATS)
